Compound activity as filed in PubChem.
Anaer choline gr – inhibitors of anaerobic choline-dependent gram-negative bacterial growth; Gram-negative bacterium anaerobic choline minimal medium, absorbance growth; active compounds read low; many inactives read as strong as hits in the columns shown; calls only; 55,000 tested, 0.2% active; AID 1963822;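 active = growth z-score on choline under -2 at 7 or 20 h with little or no fall on glycerol, limits in tiers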;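 note: stock transfer was 300 nL into about 50 µL; the organism is E. coli; final concentration not given here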
Anaer choline gr early – also measured in Anaer choline gr; calls as there; z-score; measured here: choline growth z-score, timepoint 1;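 score of optical density at 7 h as mean of two plates; lower means less growth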
The depositor's hits bear a star; i = inactive.

Anaer choline gr,Anaer choline gr early,Structure
i,0.68,CC(C)Cn1c(=O)c2sccc2n2c(SCC(=O)N3CCCCC3C)nnc12 (configuration not stated)
i,2,CC(C)c1nnc(NC(=O)c2cn(Cc3ccccc3)cc3c(=O)n(-c4ccccc4)nc2-3)s1
i,0.56,CCCN(C(=O)Cc1c(C(=O)O)n(C)c2ccccc12)c1cccc(C)c1
i,0.4,COC(=O)c1c(NC(=O)c2nn(-c3ccc(F)cc3)ccc2=O)sc2c1CCCC2
i,-1.3,COc1ccc(C(=O)Nc2c(C)nc3sc(C)cn3c2=O)cc1
i,1.3,Cc1nc2ccccn2c(=O)c1NC(=O)c1ccc(F)c(F)c1
i,-0.56,O=c1ccc(-c2ccc(Cl)c(S(=O)(=O)N3CCOCC3)c2)n[nH]1
i,0.31,O=C(NC1CCCC1)c1nc(C(=O)N2CCSCC2)cs1
i,0.87,CC(Oc1ccc2ccc(=O)oc2c1)C(=O)O (configuration not stated)
i,-0.7,CSc1nc2ccccc2c2nc(-c3ccncc3)nn12
i,-0.7,Cc1c(C(=O)N2CCCC2)oc2ccc3c(c12)C(=O)CC(C)(c1ccc(Cl)cc1)O3 (configuration not stated)
i,-1,N#CCN(c1ccc2c(c1)OCCO2)S(=O)(=O)c1ccc2nncn2c1
i,-0.07,CCOc1ccc(NC(=O)N2CC(=O)N(CC(=O)Nc3cccc(Cl)c3C)c3ccccc32)cc1
i,0.15,COc1ccc(OC)c(NC(=O)NCC(c2cccnc2)c2cn(C)c3ccccc23)c1 (configuration not stated)
i,2.2,Cn1c(CN(c2ccc(F)cc2)S(C)(=O)=O)nnc1SCC(=O)c1ccc(Cl)cc1
i,0.74,CCN1CCc2c(sc(-n3cccc3)c2C(C)NC(=O)Nc2cc(OC)cc(OC)c2)C1 (configuration not stated)
i,-0.02,O=C(c1[nH]nc2c1CCc1ccccc1-2)N1CCN(Cc2ccc(F)cc2)CC1
i,1.2,Cc1cc(C)n2nc(N(Cc3cccc(F)c3)S(=O)(=O)c3ccc(Cl)cc3)nc2n1
i,0.63,Cc1sc2ncc(C(=O)N3CCN(Cc4ccc5c(c4)OCO5)CC3)c(=O)n2c1C
i,0.97,O=C(NCc1ccc2c(c1)OCO2)c1cccc(Oc2ccnc(-c3ccc(F)cc3)n2)c1

Other results
Anaer choline gr,Anaer choline gr early,Structure
i,0.42,COC(=O)CNC(=O)C1COc2ccc(NC(=O)c3ccc(C)cc3)cc2C1 (configuration not stated)
i,0.31,CCc1csc(C2CCCN(C(=O)C(C)(C)C)C2)n1 (configuration not stated)
i,-0.41,O=S(=O)(c1ccc(-c2cnc(C3CCC3)o2)s1)N1CCCCCC1
i,0.15,CCc1ccccc1NC(=O)NCc1c(C)nn(-c2ccccc2)c1-n1cccc1
i,0.24,CCCS(=O)(=O)N1CCC(c2nc3cccnc3n2CCOC)C1 (configuration not stated)
i,1.1,Cc1cccc(C)c1NC(=O)c1cn(-c2ccccc2)nc1-c1ccccc1
i,0.29,Nc1nc2ncc(-c3ccc(Cl)cc3)c(N)n2n1
i,-1.4,COc1cc(OC)c(CC2C(=O)Nc3ccccc32)c(OC)c1 (configuration not stated)
i,0.61,Cc1sc(-c2ccno2)cc1S(=O)(=O)NC1CC1
i,-0.38,O=C(c1ccc2ccnc(N3CCN(c4ccc(Cl)cc4)CC3)c2c1)N1CCOCC1
i,0.37,COc1ccc(-c2nc3n(c2C(=O)Nc2nc(-c4ccc(F)cc4)cs2)CCS3(=O)=O)cc1
i,0.12,CCCCN1CC(=O)N(c2ccc(C)c(C)c2)[C@@H]2CS(=O)(=O)C[C@@H]21
i,1.2,CC(=O)Nc1cc(-c2nc(-c3ccc4c(c3)ncn4C)no2)ccc1C
i,-0.19,COc1ccc(OC)c(CNC(=O)c2ccc(Oc3nccnc3Sc3ccccc3)cc2)c1
i,0.57,Cc1ccc(C)c(NC(=O)Nc2ccc3c(c2)N(C)C(=O)CS3)c1
i,1.2,CCCCC1CCC(C(=O)Nc2nc(C)ns2)CC1 (configuration not stated)
i,-0.56,COCCN1CCn2c(nc3cc(Cl)ccc32)C1
i,-0.56,COc1ccc(C(=O)CN2C(=O)COc3ccccc3C2=O)cc1Cl
i,-0.35,Cc1cc2nc(COc3ccccc3NC(=O)c3ccccc3Br)cc(=O)n2o1
i,-0.59,CCCOC(=O)Cn1c(=O)oc2cc(S(=O)(=O)NCC3CCCO3)ccc21 (configuration not stated)

Reprinted from the part before: 3 compounds, then new ones.
Anaer choline gr,Anaer choline gr early,Structure
i,-0.56,COc1ccc(C(=O)CN2C(=O)COc3ccccc3C2=O)cc1Cl
i,-0.35,Cc1cc2nc(COc3ccccc3NC(=O)c3ccccc3Br)cc(=O)n2o1
i,-0.59,CCCOC(=O)Cn1c(=O)oc2cc(S(=O)(=O)NCC3CCCO3)ccc21 (configuration not stated)
i,-1.2,COc1ccc(-c2noc(-c3nnn(-c4ccccc4Cl)c3N)n2)cc1
i,-1.7,COc1ccc(Cl)cc1S(=O)(=O)Nc1cc2c(cc1N1CCCCC1)n(C)c(=O)c(=O)n2C
i,0.88,COC(=O)c1ccc(C2C3=C(CCCC3=O)Nc3onc(C)c32)cc1 (configuration not stated)
i,-0.27,Cc1nc(NC2=NCN(Cc3ccccc3)CN2)nc2ccccc12
i,0.26,Cc1nc(-c2cc(S(=O)(=O)NCc3ccc(F)c(Cl)c3)c(C)s2)cs1
i,-0.61,Cc1ccc(-c2nnc3c4ccccc4c(C)nn23)cc1S(=O)(=O)N1CCC(C)CC1
i,0.62,CCOC(=O)c1sc(NC(=O)CCn2c(=O)oc3ccccc32)c(C(=O)OCC)c1C
i,-0.43,CCS(=O)(=O)c1ccc(-c2ccc(NC(=O)c3ccc(Cl)cc3)cc2)nn1
i,-0.37,CCOC(=O)CCC(=O)Nc1cc(C)nn1-c1ncnc2c1cnn2-c1ccc(F)cc1
i,3,Cc1nn2c(NCC(C)C)cc(C(C)(C)C)nc2c1-c1ccc(F)cc1
i,0.53,COc1ccc(Cl)cc1NCC(O)Cn1nnnc1-c1ccccc1 (configuration not stated)
i,0.06,CCCS(=O)(=O)N1CCN=C1N1CCN(c2ccc(F)cc2)CC1
i,-0.25,Cc1[nH]nc2c1C(c1ccc(C(C)C)cc1)N(c1ccc(Br)cc1)C2=O (configuration not stated)
i,-1.4,C=CCOc1ccc(C(=O)Oc2cccc(-n3cnnn3)c2)cc1
i,0.33,Cc1ccc(NC(=O)CSc2nc3ccccc3n2Cc2cccnc2)cc1
i,-0.94,Cc1nn(S(C)(=O)=O)c(C)c1S(=O)(=O)N1CCCCC1
i,0.08,O=c1[nH]ccn(-c2ccc(F)c(Cl)c2)c1=O
i,-1.3,Cc1ccc(-n2ccc(=O)c(-c3nc(-c4cccc(Br)c4)no3)n2)cc1
i,0.91,CCNc1nc(C)cc(N2CCN(S(C)(=O)=O)CC2)n1
i,-1.6,Cc1noc(C)c1C1CCCN1Cc1ccccc1Br (configuration not stated)

Additional structures:
Anaer choline gr,Anaer choline gr early,Structure
i,1.2,COC(=O)c1c(NC(=O)CN(c2ccccc2)S(=O)(=O)N(C)C)sc2c1CCCC2
i,0.63,CC1=C(c2ccc(Cl)cc2)S(=O)(=O)N=C1N1CCCN(C(=O)NC(C)(C)C)CC1
i,0.7,Cn1cc(C(=O)NCCc2cccs2)c(S(=O)(=O)N2CCSCC2)n1
i,-0.52,CCS(=O)(=O)N1CCc2cc(C(=O)N3CCN(c4ccc(OC)cc4)CC3)ccc21
i,-1.1,O=C(Cn1c2ncccc2c(=O)n1-c1ccccc1)Nc1cccc(Cl)c1
i,1.5,O=C(Cc1nnc(NC(=O)Nc2ccccc2)s1)NCc1ccccc1
i,-1.4,O=C(CCc1nc(-c2ccncc2)no1)Nc1ccccc1
i,0.06,CCOCCCNCc1ccc(-c2cccc(Cl)c2)o1
i,0.08,Fc1ccc(-c2noc(-c3ccc(NC4CCCC4)nn3)n2)cc1
i,-0.07,COc1ccc(-n2ccnc(SCC(=O)Nc3cc(Cl)ccc3OC)c2=O)cc1
i,0.54,COC(=O)c1sccc1NC(=O)N1CCCC1c1cccc(F)c1 (configuration not stated)
i,-0.69,Clc1ccc(Cl)c(-c2ccc(CNCc3cccs3)o2)c1
i,0.06,O=S(=O)(c1cnc[nH]1)N1CCCC1c1ccc(F)cc1 (configuration not stated)
i,1.7,O=S(=O)(c1ccc(Br)cc1)N1CCCC(c2nc(-c3ccc(Cl)cc3)no2)C1 (configuration not stated)
i,-0.52,CN(C(=O)c1ccc(-c2cccc(F)c2)nc1)C1CCCCC1
i,0.04,CCOC(=O)c1nc(-c2ccccn2)no1
i,-0.72,Cc1[nH]c2ccccc2c1C(=O)CSc1nnc2c(=O)n(-c3ccccc3)ccn12
i,0.18,CCc1cc(C2CCCN2C(=O)c2cc(C(F)(F)F)nn2C)on1 (configuration not stated)
i,-0.76,COc1cc(C2CC(=O)Nc3c2cnn3-c2ccc3nnc(C)n3n2)ccc1OC(C)C (configuration not stated)
i,1.9,CCOC(=O)c1ccc(NC(=O)COC(=O)CC2(CC3=NS(=O)(=O)c4ccccc4N3)CCCC2)cc1

(further entries)
Anaer choline gr,Anaer choline gr early,Structure
i,0.2,CN(C)S(=O)(=O)c1cc2c(cc1NC1CCCCC1)Oc1ccccc1NC2=O
i,-1.1,O=C(NCCc1nnc2ccc(NCc3ccc(F)cc3)nn12)c1ccccc1F
i,-0.35,CCCCNc1ncnc2sc(CC)cc12
i,-0.09,Cc1cc(S(=O)(=O)C(CNC(=O)c2ccccc2)c2cccnc2)ccc1F (configuration not stated)
i,-0.95,COc1ccccc1C(=O)Nc1ccc(-c2nc3ccccc3s2)c(Cl)c1
i,0.95,COc1ccccc1CNC(=O)C1CCCN1S(=O)(=O)c1cc2c(cc1C)NC(=O)CO2 (configuration not stated)
i,-0.93,CCc1noc2nc(C)nc(Nc3cccc(F)c3)c12
i,-0.15,O=S(=O)(c1ccccc1)c1nc(-c2cccs2)oc1NCc1ccc(F)cc1
i,-0.14,CCC(=O)Nc1ccccc1-c1nnc(SC(CC)C(=O)Nc2ccc(C)cc2C)[nH]c1=O (configuration not stated)
i,-0.8,Cn1cc(C(=O)Nc2ccccc2F)c2[nH]c(=O)n(-c3ccccc3)c(=O)c21
i,-0.27,Cc1nc2c3ccccc3n(CC(=O)N3CCN(c4ccccc4F)CC3)c(=O)n2n1
i,0.64,CCc1ccc(NC(=O)C2CCN(S(=O)(=O)c3ccc4c(c3)S(=O)(=O)N=CN4)CC2)cc1
i,-2.9,O=C(Nc1nnc2n1CCCS2)C1CCCC1
i,0.26,Cc1ccc2occ(CC(=O)Nc3ccccc3C)c2c1
i,0.07,CC(C)CNC(=O)c1cc(-c2ccccn2)nc2ccccc12
i,2.5,COc1ccc2nc(NC(=O)c3ccc(-n4nc(C)c(-c5ccccc5)c4NC(C)=O)cc3)sc2c1
i,0.78,CCOc1ccccc1NS(=O)(=O)c1cc(-c2cc(C(F)(F)F)on2)sc1C
i,-0.41,Cc1occc1-c1nnc2sc(-c3ccc4ccccc4n3)nn12
i,0.25,C=CCN1CC(c2nc3ccccc3n2CC(O)COc2ccccc2)CC1=O (configuration not stated)
i,0.76,COc1cccc(Cn2c(=O)n(-c3ccccc3)c(=O)c3c4c(sc32)CN(C(C)=O)CC4)c1

Quoted from the entries so far (5 entries):
Anaer choline gr,Anaer choline gr early,Structure
i,2.5,COc1ccc2nc(NC(=O)c3ccc(-n4nc(C)c(-c5ccccc5)c4NC(C)=O)cc3)sc2c1
i,0.78,CCOc1ccccc1NS(=O)(=O)c1cc(-c2cc(C(F)(F)F)on2)sc1C
i,-0.41,Cc1occc1-c1nnc2sc(-c3ccc4ccccc4n3)nn12
i,0.25,C=CCN1CC(c2nc3ccccc3n2CC(O)COc2ccccc2)CC1=O (configuration not stated)
i,0.76,COc1cccc(Cn2c(=O)n(-c3ccccc3)c(=O)c3c4c(sc32)CN(C(C)=O)CC4)c1

Carrying on:
Anaer choline gr,Anaer choline gr early,Structure
i,-0.85,C=CCNC(=O)C1CCN(c2ccc(Cl)cc2)C1=O (configuration not stated)
i,-0.87,CCOC(=O)CC1=CC(=O)N(CC(=O)N(C)c2ccccc2)c2ccccc2N1
i,0.1,O=C(CN1C(=O)CCn2nc(-c3ccc(Cl)cc3)cc21)NCc1ccc2c(c1)OCO2
i,0.77,CCOC(=O)c1cccc(NC(=O)Cn2c(=O)c(CCC(=O)NC3CCCC3)nc3ccccc32)c1
i,0.6,CN(CC(=O)NCCC1=CCCCC1)S(=O)(=O)c1ccc2c(c1)CCCC(=O)N2
i,-1.1,O=C(Nc1cc(Br)ccc1O)c1noc2c1CCc1ccccc1-2
i,-0.4,C=CCN1CCN(C(=O)NCc2ccc(C)cc2)c2cccnc21
i,0.92,O=S(=O)(Cc1nc(-c2ccc3c(c2)OCO3)no1)c1ccccc1
i,-0.18,COc1ccc(N2C(=O)CCS2(=O)=O)cc1S(=O)(=O)Nc1ccc(Oc2ccccc2)cc1
i,-0.54,Cn1c(SCc2cc(=O)c3cc(F)ccc3[nH]2)nnc1-c1ccccc1
i,0.87,CCOc1nc2cccnc2n(CC(=O)Nc2ccc(CC)cc2)c1=O
i,-0.34,Cc1nn(-c2nc3ccccc3o2)c2c1C(c1ccccc1F)CC(=O)N2 (configuration not stated)
i,0.42,Cc1cc(C)cc(N2C=NS(=O)(=O)c3cccnc32)c1
i,0.82,Cc1c(N2CCC(C(=O)N3CCCC3)CC2)c(=O)n(C)c(=O)n1-c1ccccc1
i,0.37,CCOc1ccc(S(=O)(=O)N2CCN(c3ccc(OC)cc3)CC2)cc1-c1nc(C)no1
i,0.59,CCN(Cc1ccc(F)cc1)Cc1cc(=O)n2nc(C(C)C)sc2n1
i,-0.66,CCc1ccc(NC(=O)Nc2ccc(-c3nc4ccccc4s3)cc2)cc1

One compound at a time, from the list above.
C=CCNC(=O)C1CCN(c2ccc(Cl)cc2)C1=O (configuration not stated) across the screens: Anaer choline gr = i; Anaer choline gr early = -0.85
Cc1[nH]c2ccccc2c1C(=O)CSc1nnc2c(=O)n(-c3ccccc3)ccn12 across the screens: Anaer choline gr = i; Anaer choline gr early = -0.72

This is a subset; rates above refer to the full screens.
